Assay outcomes as filed in PubChem BioAssay.
Vaccinia mCherry: inhibitors of vaccinia virus infection (mCherry reporter signal) | Potency, µM (series often up to 36.5 µM), for inactives: at the highest dose activity change, negative = inhibition, hits mostly inhibitors | 310,000 compounds, 0.63% hits | Vaccinia virus mCherry reporter infection, fluorescence; about a quarter of the inactives have no number | AID 720579; active = well fitted inhibition curve with a large enough effect; inconclusive = small, poorly fitted or top-dose-only effect; inactive = no such curve, though single readings can be large or run the other way; tested in A549 cells; note: nearly all actives have a fitted effect of over 35% in size; inactives centre near -10
VACV Venus inh: vaccinia inhibition (Venus reporter) | Vaccinia virus Venus reporter expression, fluorescence | Potency, µM (series often up to 36.5 µM), inactives show at the highest dose activity change, negative = inhibition, usual class: inhibitors | 330,000 compounds, 0.46% hits | AID 720580; active means well fitted inhibition curve with a large enough effect; inconclusive means small, poorly fitted or top-dose-only effect; inactive means no such curve, though single readings can be large or run the other way; tested in A549 cells; note: nearly all actives have a fitted effect of over 30% in size; inactives centre near -10
* hit, by the source's call; i = inactive; ? = inconclusive; / = no result given; & = joins results of further samples; [ ] = another dose, or the depositor's remark. % is set by controls: 0 for no effect and ±100 for the full control effect; potency is the fitted concentration of half-maximal effect.

Every second line gives: Vaccinia mCherry	VACV Venus inh
COc1ccc(S(=O)(=O)N/N=C\c2ccc(OC)c(COc3ccc(C)cc3[N+](=O)[O-])c2)cc1
 : -13%	-18%
Cc1ccc(OCCN2CCC2(C)C(=O)NCc2ccc(C(F)(F)F)cc2)cc1 (stereo not drawn)
 : -8%	-15%
COC(=O)c1ccc(NC(=O)c2ccc(NC(=O)c3ccco3)cc2)cc1
 : -7%	-5%
COc1cccc(-n2ccnc2SCC(=O)Nc2ccccc2)c1
 : -23%	-17%
Oc1ccc(Cl)cc1CNc1nccs1
 : ?	?
COc1ccc(N(CC(=O)Nc2ccccc2C)S(=O)(=O)c2ccccc2[N+](=O)[O-])c(OC)c1
 : -7%	-3%
Cc1ccccc1-c1cc2nccc(-c3cc(Cl)ccc3O)n2n1
 : -6%	-4%
Cc1cc(C)nc(NS(=O)(=O)c2ccc(NC(=O)C(C)Oc3ccccc3F)cc2)n1 (stereo not drawn)
 : -8%	-3%
Cc1ccc(NC(=O)CNC(=O)c2cccc(Cl)c2)nc1
 : ?	?
CSc1ccc(CN(C)CC(=O)Nc2ccccc2Br)cc1
 : -11%	-9%
CCOC(=O)c1c(-c2ccccc2)csc1NC(=O)c1cc(-c2ccc(F)cc2)on1
 : -8%	12%
Cc1ccc(CN2CCCCC2C(=O)Nc2ccc(Oc3cccnc3)cc2)o1 (stereo not drawn)
 : -4%	-30%
Cc1cccc(S(=O)(=O)N(C)C[C@H]2OCc3cnnn3CCCC(=O)N([C@H](C)CO)C[C@H]2C)c1
 : i	-14%
CC(C)(C)NC(=O)C(c1ccncc1)N(C(=O)c1csnn1)c1ccccc1 (stereo not drawn)
 : -9%	0%
COc1cc(OC)c(OC)cc1/C=C/c1nc2ccccc2c(=O)n1-c1ccc(Br)c(C)c1
 : -26%	-23%
CC(NS(=O)(=O)c1ccc2c(c1)CCN2C(=O)CCCC(=O)O)c1ccccc1 (stereo not drawn)
 : -2%	-5%
O=C(CCC(=O)OCc1cccc([N+](=O)[O-])c1)Nc1ccccc1Cl
 : -1%	-14%
CNS(=O)(=O)c1cn(CC(=O)Nc2ccc(C)cc2C)cc1S(=O)(=O)NC
 : i	4%
COc1cccc(C(=O)N/N=C(\CC(C)C)c2ccccc2)c1
 : -27%	-10%
O=P(O)(CCc1ccccc1)CN1CCCCC1
 : -14%	-13%
COc1ccc(S(=O)(=O)N2CCOCC2)cc1NC(=O)CSc1nnc2n1CCCCC2
 : -14%	-16%
O=C(c1cc(-c2ccc(Cl)s2)nc2ccccc12)N1CCOCC1
 : 5%	4%
O=C(O)CNC1c2ccccc2CSc2ccccc21 (stereo not drawn)
 : i	-4%
Cc1cccc(N(C(=O)c2csnn2)C(C(=O)NCc2ccccc2)c2ccncc2)c1 (stereo not drawn)
 : -8%	-5%
O=C(/C=C/c1ccccc1)OCCN1C(=O)c2ccccc2C1=O
 : i	-9%
Cc1cccc2cc(CN(Cc3cccs3)C3(c4nnnn4C4CCCC4)CCCC3)c(=O)[nH]c12
 : /	-9%
COc1ccc(CN(C)C(=O)c2cc(S(=O)(=O)Nc3ccccc3F)ccc2C)c(OC)c1
 : i	-25%
C[C@H](CO)N1C[C@H](C)[C@H](CN(C)C(=O)Nc2ccccc2)OCc2cnnn2CCCC1=O
 : -2%	-9%
CCC(C)[C@H](NS(=O)(=O)c1ccc(C)cc1)C(=O)N1CCC(C(=O)N2CCC(C(N)=O)CC2)CC1 (stereo partly drawn)
 : 2%	-4%
O=C(c1ccccc1)C(O)c1ccccc1 (stereo not drawn)
 : -2%	-18%

Grouped by structure: the compounds so far with an aryl thioether with sulfur outside any ring.
Every second line gives: Vaccinia mCherry	VACV Venus inh
COc1cccc(-n2ccnc2SCC(=O)Nc2ccccc2)c1
 : -23%	-17%
CSc1ccc(CN(C)CC(=O)Nc2ccccc2Br)cc1
 : -11%	-9%
COc1ccc(S(=O)(=O)N2CCOCC2)cc1NC(=O)CSc1nnc2n1CCCCC2
 : -14%	-16%

Other records follow.
Every second line gives: Vaccinia mCherry	VACV Venus inh
Cc1ccc(/C=N/NC(=O)c2c[nH]c3ccccc23)o1
 : i	-5%
CCN1C[C@@H]2[C@@H]3C(=O)N(C)C(=O)[C@@H]3[C@](Cc3ccccc3)(C1=O)N2C(=O)c1ccc(Br)cc1
 : i	-1%
CN(CC(=O)N1CCN(c2ccccc2)CC1)S(=O)(=O)c1cnc[nH]1
 : -4%	1%
O=C1CC[C@@]23/C=C/C(=O)NCCCCNCCCNC(=O)/C=C/c4ccc(c2c4)OC3C1 (stereo partly drawn)
 : i	-27%
COc1ccc(C(=O)OCC(=O)N2CCN(C(=O)c3ccco3)CC2)cc1OC
 : i	-5%
COc1ccc(-n2cc(C(=O)NCCc3cc(OC)ccc3OC)c3ccccc3c2=O)cc1
 : -16%	-11%
O=C(NC(=O)c1cccc(F)c1)Nc1nc(-c2ccc(F)cc2)cc(C(F)(F)F)n1
 : 0%	-11%
COc1ccc(CN(C)C(=O)CNC(=O)Cc2cccc3ccccc23)c(OC)c1OC
 : -14%	-17%
COc1ccc(CN(C)CCCn2cnc3c(OC)ncnc32)cc1OC
 : 4%	4%
CCCc1ccc(OCC(=O)Nc2cc(S(=O)(=O)CC)ccc2O)cc1
 : -7%	-1%
N#C/C(=C(/O)COC(=O)CCCNC(=O)c1ccc(Cl)cc1)c1nc2ccccc2[nH]1
 : 6%	10%
COc1ccc(Cn2nnnc2CN2CCOCC2)cc1
 : -20%	-4%
CCc1nnc(N/N=C/c2c(C)[nH]c3ccccc23)n1N
 : ?	?
O=C1NC2=C(C(=O)CCC2)C(c2ccccc2Cl)N1 (stereo not drawn)
 : -12%	-5%
Cc1ccc(-n2c(C)cc(C(=O)COC(=O)C3=NNC(=O)CC3)c2C)cc1
 : /	-17%
CC12CCC(=O)N1C(C(=O)NNC(=O)COc1ccccc1F)CS2 (stereo not drawn)
 : -16%	-15%
CSc1ccccc1OCc1cc(C(=O)NCCC2=CCCCC2)no1
 : -14%	-1%
C=C(C)C1CC=C(C)/C(=N/NC(=O)c2cccc([N+](=O)[O-])c2)C1 (stereo not drawn)
 : -22%	-9%
Cc1ncc([N+](=O)[O-])n1CCOC(=O)Nc1ccc([N+](=O)[O-])cc1
 : i	1%
COCC1CCCCN1C(=O)c1ccc(OC2CCN(Cc3ccccn3)CC2)cc1 (stereo not drawn)
 : -15%	-11%
Cc1ccc(C)c(Cn2c(CO)nc3ccccc32)c1
 : /	-23%
Cc1cc(C)cc(N2CC(C(=O)O)CC2=O)c1 (stereo not drawn)
 : /	-22%
CC(=O)Oc1ccc(C(=O)Nc2cc(NC(=O)c3ccc(OC(C)=O)cc3)cc(C(=O)NC(C)(C)C)c2)cc1
 : -6%	-16%
CCC(=O)N(C)C[C@H]1Oc2cc(-c3cccnc3)ccc2S(=O)(=O)N([C@H](C)CO)C[C@H]1C
 : i	-12%
COC(=O)C(Cc1ccccc1)NC(=O)CSc1nc(N)cc(=O)[nH]1 (stereo not drawn)
 : /	0%
Cc1ccc(-c2csc(NC(=O)N3CCOCC3)n2)cc1
 : -27%	?
N/C(=N\OC(=O)c1ccc(Br)o1)c1ccccn1
 : 12%	8%
Cn1nnnc1SCC(=O)Nc1ccccc1Cc1ccccc1
 : -7%	2%
CCOC(=O)c1c(NC(=O)C2C3C=CC(C3)C2C(=O)O)sc2c1CC(C)CC2 (stereo not drawn)
 : -29%	-15%
CCc1nnc(NC(=O)Cc2ccc(OC)c(S(=O)(=O)N3CCOCC3)c2)s1
 : i	-8%
COc1ccc(NC(=O)CSc2nc(-c3ccco3)cc(C(F)(F)F)n2)cc1Cl
 : -9%[7.34 µM]	-11%[7.34 µM]
COc1ccc(-c2cc(-c3ccccc3)nc(SCC(=O)Nc3nccs3)c2C#N)cc1
 : -17%	-20%
O=C(Nc1ccccc1)C1=C(O)CC(c2ccco2)CC1=Nc1ccccc1 (stereo not drawn)
 : -7%	1%
Cc1ccc(S(=O)(=O)N2CCN(C(=O)N(C)C)CC2)cc1C
 : /	-17%
C[C@]12C=CC(=O)C=C1CC[C@H]1[C@@H]3C[C@@H](O)[C@](O)(C(=O)CO)[C@@]3(C)C[C@H](O)[C@@]12F
 : -2%	-12%&-6%
O=C1c2ccccc2C(=O)N1OCCCN1C(=O)c2ccccc2S1(=O)=O
 : i	-3%
O=c1c2ccc(Cl)cc2[nH]c(=S)n1-c1cccnc1
 : i	-14%
Cc1oc2c(CN3CCCCC3)c(O)ccc2c(=O)c1-c1ccc(Cl)cc1
 : i	-7%
Cc1cccc(C(=O)NC2CCN(CC(=O)Nc3ccccc3Cl)CC2)c1
 : i	-11%
COc1nc(-c2cccc([N+](=O)[O-])c2)nc2ccccc12
 : -12%	-6%
Cc1cc2oc(C(=O)N(Cc3ccc(Cl)cc3)Cc3ccco3)c(C)c2cc1Cl
 : i	-12%
Cc1ccc(NC(=O)CSc2nnc(NC(=O)C(C)C)s2)c(C)c1
 : -2%	-18%
O=C(COc1ccccc1Cl)N(Cc1ccco1)C1CCS(=O)(=O)C1 (stereo not drawn)
 : -11%	-9%
O=C(Nc1cccc(NC(=O)c2ccc(Cl)cc2)n1)c1ccc(Cl)cc1
 : -13%	-22%
CCCN(CC(=O)Nc1ccccc1C)C(=O)C1CCN(C(=O)Nc2ccccc2)CC1
 : -13%	-19%
CCOc1ccccc1NC(=O)CCN(c1ccc(C)cc1)S(=O)(=O)c1ccccc1
 : -10%	-12%
Cc1ccc(OCC(=O)Nc2cccc(S(=O)(=O)N3CCCCCC3)c2)cc1C
 : i	-11%
COc1ccc(C2CC(O)(c3ccccc3)Oc3cc(OC)ccc32)cc1 (stereo not drawn)
 : ?	?
Cc1ccc2c(COC(=O)c3ccccc3Cl)cc(=O)oc2c1
 : i	-13%
CCOP(=O)(OCC)C(NC(=O)c1ccc(OC)c(OC)c1)c1ccccc1 (stereo not drawn)
 : i	-4%
CCOC(=O)c1cc(-c2ccc(OC(F)F)cc2)nc2c1c(=O)[nH]c(=O)n2C
 : -12%	-12%
COCCNC(=O)c1cc(S(=O)(=O)N2CCC3(CC2)OCCO3)ccc1F
 : -8%	-6%
O=C(N/N=C/c1cc(Br)ccc1OC(=O)c1ccc(Br)cc1)c1ccncc1
 : 4.5µM*	?
CCCNC(=O)C1(C)CCN1C(=O)c1ccccc1CCc1ccccc1 (stereo not drawn)
 : -3%	-3%
Cc1c(C(=O)Nc2ccccc2)cn2c(nc3ccccc32)c1C#N
 : i	-14%
Cc1cc(C)nc(Nc2ccc(N3CCOCC3)cc2)n1
 : -5%	0%
O=C(Nc1ccccc1C(=O)O)c1cc(S(=O)(=O)N2CCOCC2)cs1
 : i	0%
NC(CCCCCP(=O)(c1ccccc1)c1ccccc1)C(=O)O (stereo not drawn)
 : 0%	-20%
CC1CCN(C(=O)C2CCN(S(=O)(=O)c3cnc[nH]3)CC2)CC1
 : i	-17%
CCc1ccc(C2c3[nH]c4ccccc4c3CCN2C(=O)c2ccc(=O)n(C)n2)cc1 (stereo not drawn)
 : -10%	-16%

Profiles from above. Order of values: Vaccinia mCherry	VACV Venus inh
`O=C1c2ccccc2C(=O)N1OCCCN1C(=O)c2ccccc2S1(=O)=O` reads i	-3%
`O=C(COc1ccccc1Cl)N(Cc1ccco1)C1CCS(=O)(=O)C1` (stereo not drawn) reads -11%	-9%
`O=C(Nc1ccccc1)C1=C(O)CC(c2ccco2)CC1=Nc1ccccc1` (stereo not drawn) reads -7%	1%

Following part:
Every second line gives: Vaccinia mCherry	VACV Venus inh
COc1ccc(S(=O)(=O)N2CCC3CC2c2c(-c4ccc(C(F)(F)F)cc4)cccc23)cc1 (stereo not drawn)
 : i	1%
Cc1ccccc1C(=O)NNC(=O)C1CCN(C(=O)Nc2ccccc2)CC1
 : -5%	-7%
Cc1ccc(C(=O)NC2CCN(CC(=O)Nc3cccc([N+](=O)[O-])c3)CC2)cc1
 : -1%	-3%
O=C(Nc1ccc(SC(F)F)cc1)c1cc(-c2ccc3c(c2)OCCO3)on1
 : -12%	2%
NC(=O)CN1C(=O)C(=O)N(Cc2ccccc2)C1=O
 : i	-6%
CN1C(=O)c2ccc(C(=O)NCc3ccccn3)cc2C1=O
 : -10%	3%
CC1CCCN(CCC(=O)Nc2ccc3c(c2)CCC3)C1 (stereo not drawn)
 : ?	-27%
COc1ccc(-c2noc(CSc3nnc(C)n3-c3ccc(C)cc3)n2)cc1OC
 : -7%	-4%
COC(=O)C(NC=O)C(O)(Cc1ccccc1)C(F)(F)F (stereo not drawn)
 : -16%	-15%

Sorted by length of the SMILES (rising): some entries from above
Every second line gives: Vaccinia mCherry	VACV Venus inh
CN1C(=O)c2ccc(C(=O)NCc3ccccn3)cc2C1=O
 : -10%	3%
NC(CCCCCP(=O)(c1ccccc1)c1ccccc1)C(=O)O (stereo not drawn)
 : 0%	-20%
Cc1cccc(C(=O)NC2CCN(CC(=O)Nc3ccccc3Cl)CC2)c1
 : i	-11%
CNS(=O)(=O)c1cn(CC(=O)Nc2ccc(C)cc2C)cc1S(=O)(=O)NC
 : i	4%
COc1cc(OC)c(OC)cc1/C=C/c1nc2ccccc2c(=O)n1-c1ccc(Br)c(C)c1
 : -26%	-23%
C[C@H](CO)N1C[C@H](C)[C@H](CN(C)C(=O)Nc2ccccc2)OCc2cnnn2CCCC1=O
 : -2%	-9%
